Screens as filed in PubChem.
Vif A3G: inhibitors of Vif binding to APOBEC3G peptide, primary screen, biochemical, TR-FRET, GST-Vif 1-94, biotin-A3G peptide, dose response retest (AID 1117319); TR-FRET GST-Vif / biotin-A3G peptide binding; higher % means a stronger effect; test concentration not given here; strong numbers were not always called active; inhibition, %; hits with a dose series show IC50 in µM; 0.57% of 260,000 active;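 active = above the screen mean plus three standard deviations and confirmed in dose response; inconclusive = results disagree or hit not tested in dose response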;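 note: Vif residues 1-94 fused to GST binding biotinylated APOBEC3G peptide 110-148; 0% = full assay without inhibitor and 100% = GST in place of GST-Vif; retest series ran down from 100 µM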
LANA-H2B inh: blocks KSHV LANA binding to histone H2A/H2B. Q9QR71. cell-free LANA-H2A/H2B peptide, fluorescence polarization. AID 2629. 0.6% of 320,000 active. inhibition, % (test concentration not listed); in the data active = inhibition mostly above about 10%, no sharp cut-off; inactive = mostly below about 6.7%;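 note: stock transfer was 7.5 nL into about 10 µL; 0% = median of vehicle wells and 100% = median of positive control wells; one replicate is shown; the record names a cut of 25% in any replicate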
RanGTP-Impb inh: disruptors of Ran-importin-beta complex formation – biochemical, FRET, CFP-Ran, YFP-importin-beta, homogeneous, primary screen. cell-free CFP-Ran/YFP-importin-beta FRET ratio. inhibition, % (no concentration beside the values). 1.1% of 300,000 active;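 active = most replicates above 15%; inconclusive = exactly half above 15%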;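 note: 0% = DMSO wells and 100% = Ran loaded with GDP instead of GTP; wells of about 40 µL received 100 nL stock; the first replicate is given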
AF4-AF9 inh: blocks AF4 peptide binding to human AF9. AlphaScreen, biotin-AF4 peptide binding to FLAG-AF9. inhibition, % at 10 µM. 0.47% of 350,000 active;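 active = every replicate reaching a set inhibition limit, whatever the replicate mean, cut at about 25% in these data; inconclusive = mean inhibition reaches that limit but some replicates miss it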;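 note: 0% = plate neutral control median and 100% = total signal loss; the record names both 10 and 1 µM as test concentration; the first replicate is given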
T cruzi inh: blocks replication of Trypanosoma cruzi; AID 1885; T. cruzi beta-gal in NIH3T3, luminescence, 90 h; inhibition, % (concentration not given with the values); 1.4% of 300,000 active;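 active = mean inhibition across valid replicates above about 55%, limit read from the data; inconclusive = mean below that limit but half or more replicates reach it; inactive = mean below it, under half of replicates reach it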;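 note: signal also drops with host cell toxicity which is not excluded here; 0% = plate median of DMSO wells and 100% = zero luminescence signal; higher percent means less beta-gal luminescence so fewer parasites; stock transfer was 50 nL into about 50 µL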
Beta apoptosis: beta cell apoptosis inhibition. INS-1E cytokine-induced death, ATP luminescence, 48 h; percent of positive-control rescue, neutral wells zero. protection from apoptosis, % (no concentration beside the values). 0.8% of 300,000 active. AID 435005;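 active = all replicates at 75% or more, or half of them and the mean; inconclusive = half reach 75% but not the mean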;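 note: 0% = cytokine-treated negative control wells and 100% = positive control rescue; higher means more ATP so stronger rescue from cytokine killing; wells of about 40 µL received 100 nL stock; the first replicate is given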
Bfl-1 A1 inh: inhibitors of the anti-apoptotic protein A1, read as caspase activation. MEF A1-2A-BIM cells, Caspase-Glo 3/7 luminescence, 3 h; percent of clofoctol response, vehicle zero. caspase activation, % (test concentration not listed). 0.066% of 330,000 active. AID 2462;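 active = over half of replicate activation scores above 10%, or exactly half above 10 with the replicate mean above 10; inconclusive = replicate mean below 10 yet half the replicates above 10; inactive = over half of replicates below 10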;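 note: wells of about 30 µL received 50 nL stock; many hits fall short of the cut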
Calb FLC: C. albicans growth modulation with fluconazole; C. albicans CaCi-2 (fluconazole-resistant clinical isolate) + fluconazole, Alamar Blue growth, 48 h; growth inhibition, % (no concentration beside the values); 0.57% of 300,000 active; AID 1979;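 active = most replicates above 75%; inconclusive = exactly half above 75%; inactive = most below 75%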;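 note: all wells also contain fluconazole at 8 µg/ml as a sub-toxic cotreatment; 0% = median of DMSO wells and 100% = median of geldanamycin control wells; wells of about 8 µL received 7.5 nL stock; the first replicate is given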
The depositor's hits bear a star; ? = inconclusive; · = no result given; & = joins results of further samples. The order is random (roughly 4.3% active in at least one column).

SMILES	Vif A3G	LANA-H2B inh	RanGTP-Impb inh	AF4-AF9 inh	T cruzi inh	Beta apoptosis	Bfl-1 A1 inh	Calb FLC
Oc1ccc(Br)cc1-c1nc2cnccn2c1NC1CCCC1	30%	-3.7	7.7	·	-4	-7	1.5	-8
Cc1cc(C)n(CC(=O)c2cccc([N+](=O)[O-])c2)n1	-2%	1.1	1.0	1.2	-5	1	0.7	6
Cc1nc(SCC(=O)Nc2ccc3[nH]c(=O)[nH]c3c2)nc(C)c1C	-11%	0.7	·	-4.4	·	-4	0.6	·
CCCc1oc(C(=O)O)cc1CN	4%	-7.0	4.7	·	-23	-2	-0.8	45
O=C(COc1ccc(S(=O)(=O)N2CCCC2)cc1)Nc1ccc(F)cc1	·	-0.2	2.6	0.8	-10	-12	0.4	-3
COC(=O)c1ccc(OCC(O)CN2CCN(CC(O)COc3ccc(C(=O)OC)cc3)CC2)cc1 (stereo not drawn)	-8%	0.2	-1.5	2.5	-26	-2	0.3	-12
CN(Cc1cccs1)C(=O)c1cc(S(=O)(=O)N2CCOCC2)ccc1N1CCCC1	2%	·	·	-1.6	·	-1	-0.8	·
CCCN(Cc1nnc(-c2cccs2)o1)C(=O)c1cc(S(=O)(=O)N2CCOCC2)ccc1C	9%	5.9	·	0.6	·	0	?	·
CC(O/N=C/c1ccccc1OC(F)F)C(=O)Nc1cccc(S(=O)(=O)N2CCOCC2)c1 (stereo not drawn)	·	3.7	0.0	·	9	1	1.4	5
Cc1ccccc1NC(=O)CCS(=O)(=O)c1ccc(Br)cc1	19%	-0.7	2.4	-0.4	-8	-4	0.5	-5
Cc1cc(C)cc(NS(=O)(=O)c2cc(Br)cnc2N)c1	·	-0.7	1.3	-0.8	22	-2	0.2	-7
COc1ccc(N2CCN(C(=O)C(=O)c3cn(CC(=O)N4CCCCCC4)c4ccccc34)CC2)cc1	·	3.2	6.1	3.8	34	16	-0.4	4
CC1CCCN(C(=S)SCC(=O)c2cc(Br)cc(Br)c2O)C1 (stereo not drawn)	24%	-0.3	-1.0	1.1	-19	-2	-0.3	-5
O=C(O)/C=C/c1ccc(S(=O)(=O)N2CCN(CCN3C(=O)C4C5C=CC(C5)C4C3=O)CC2)cc1 (stereo not drawn)	103%	1.3	0.3	-2.9	2	-6	0.4	-9
Cc1cccc(C)c1Nc1nnc(SCC(=O)Nc2sccc2C#N)s1	·	0.3	0.8	-0.6	-14	-1	0.5	17
Cc1ccc(SCC(=O)Nc2cc(S(=O)(=O)N3CCCCC3)ccc2C)cc1	-8%	6.6	·	-1.6	·	-4	0.5	·
Cc1ccc(C)c(NC(=O)CN(C)C(=O)c2cccc(S(=O)(=O)N(C)C)c2)c1	6%	-16	-4.3	0.0	-15	-5	-0.4	2
Cc1nn(C)c2ncc(C(N)=O)c(Oc3cccnc3)c12	-6%	-0.1	-2.3	3.6	4	0	-2.4	1
CN1C2CCC1CC(N(CCc1ccccc1)C(=O)c1ccc(Cl)cc1)C2 (stereo not drawn)	-2%	-1.2	-1.0	3.0	14	6	0.9	-2
CC(C)CCNC(=O)NC(=O)CSc1nnc(COc2ccccc2Cl)o1	1%	1.0	2.2	·	-2	0	0.4	21

Reformatted comma-delimited: 2 of the compounds above.
SMILES,Vif A3G,LANA-H2B inh,RanGTP-Impb inh,AF4-AF9 inh,T cruzi inh,Beta apoptosis,Bfl-1 A1 inh,Calb FLC
O=C(O)/C=C/c1ccc(S(=O)(=O)N2CCN(CCN3C(=O)C4C5C=CC(C5)C4C3=O)CC2)cc1 (stereo not drawn),103%,1.3,0.3,-2.9,2,-6,0.4,-9
CC1CCCN(C(=S)SCC(=O)c2cc(Br)cc(Br)c2O)C1 (stereo not drawn),24%,-0.3,-1.0,1.1,-19,-2,-0.3,-5

A second format for some results above:
compound | Vif A3G | LANA-H2B inh | RanGTP-Impb inh | AF4-AF9 inh | T cruzi inh | Beta apoptosis | Bfl-1 A1 inh | Calb FLC
Oc1ccc(Br)cc1-c1nc2cnccn2c1NC1CCCC1 | 30% | -3.7 | 7.7 | · | -4 | -7 | 1.5 | -8
Cc1cc(C)n(CC(=O)c2cccc([N+](=O)[O-])c2)n1 | -2% | 1.1 | 1.0 | 1.2 | -5 | 1 | 0.7 | 6
Cc1nc(SCC(=O)Nc2ccc3[nH]c(=O)[nH]c3c2)nc(C)c1C | -11% | 0.7 | · | -4.4 | · | -4 | 0.6 | ·
CCCc1oc(C(=O)O)cc1CN | 4% | -7.0 | 4.7 | · | -23 | -2 | -0.8 | 45
O=C(COc1ccc(S(=O)(=O)N2CCCC2)cc1)Nc1ccc(F)cc1 | · | -0.2 | 2.6 | 0.8 | -10 | -12 | 0.4 | -3
COC(=O)c1ccc(OCC(O)CN2CCN(CC(O)COc3ccc(C(=O)OC)cc3)CC2)cc1 (stereo not drawn) | -8% | 0.2 | -1.5 | 2.5 | -26 | -2 | 0.3 | -12
CN(Cc1cccs1)C(=O)c1cc(S(=O)(=O)N2CCOCC2)ccc1N1CCCC1 | 2% | · | · | -1.6 | · | -1 | -0.8 | ·
CCCN(Cc1nnc(-c2cccs2)o1)C(=O)c1cc(S(=O)(=O)N2CCOCC2)ccc1C | 9% | 5.9 | · | 0.6 | · | 0 | ? | ·
CC(O/N=C/c1ccccc1OC(F)F)C(=O)Nc1cccc(S(=O)(=O)N2CCOCC2)c1 (stereo not drawn) | · | 3.7 | 0.0 | · | 9 | 1 | 1.4 | 5
Cc1ccccc1NC(=O)CCS(=O)(=O)c1ccc(Br)cc1 | 19% | -0.7 | 2.4 | -0.4 | -8 | -4 | 0.5 | -5
Cc1cc(C)cc(NS(=O)(=O)c2cc(Br)cnc2N)c1 | · | -0.7 | 1.3 | -0.8 | 22 | -2 | 0.2 | -7
COc1ccc(N2CCN(C(=O)C(=O)c3cn(CC(=O)N4CCCCCC4)c4ccccc34)CC2)cc1 | · | 3.2 | 6.1 | 3.8 | 34 | 16 | -0.4 | 4
CC1CCCN(C(=S)SCC(=O)c2cc(Br)cc(Br)c2O)C1 (stereo not drawn) | 24% | -0.3 | -1.0 | 1.1 | -19 | -2 | -0.3 | -5

Later entries.
SMILES	Vif A3G	LANA-H2B inh	RanGTP-Impb inh	AF4-AF9 inh	T cruzi inh	Beta apoptosis	Bfl-1 A1 inh	Calb FLC
CSc1nc2ccc(Cl)cc2[nH]1	3%	0.9	-1.2	·	-7	4	-0.1	-5
Cc1cccc(NC(=S)N(CCCN2CCOCC2)Cc2ccco2)c1	?	-2.7	1.8	-1.3	-2	-1	0.4	-15
C#CCOCCOCCOCCNc1nc(N2CCN(C(=O)[C@H]([C@@H](C)CC)n3cc(CCCN=C(N)N)nn3)CC2)nc(N2CCN(C(=O)[C@H](Cc3ccc(O)cc3)n3cc(CCO)nn3)CC2)n1	-2%	-0.9	·	31*	·	0	-0.5	·
Cc1ccc(NC(=O)CSc2ncn(-c3ccccc3)n2)cc1C	3%	3.4	6.8	·	-5	·	0.1	?
CN1/C(=C\C(=O)COC(=O)CNC(=O)c2ccccc2F)C(C)(C)c2ccccc21	·	-1.9	0.3	-0.7	-10	6	-0.5	-7
CS(=O)(=O)c1ccc(Cl)c(NC(=O)C2CC(=O)N(Cc3ccccc3)C2)c1 (stereo not drawn)	20%	-4.6	5.9	·	6	-7	0.1	1
COC(=O)C(CCCCNC(=O)c1ccc([N+](=O)[O-])cc1)NC(=O)c1ccc([N+](=O)[O-])cc1 (stereo not drawn)	-1%	-0.5	2.2	·	2	-1	0.7	-18
O=C1[C@@H]2C(c3cccnc3)=NO[C@@H]2C(=O)N1c1ccc(Cl)cc1Cl	·	-4.2	2.1	·	-15	-10	0.5	-4
O=C(NCc1ccccc1)C1=C[C@@H](c2ccc(C(F)(F)F)cc2)C[C@@H](OCCCCO)O1	·	-3.7	5.1	-2.5&-1.2	51	-7	0.4	-3
CCN(CC)CCCN(Cc1cc2cc3c(cc2[nH]c1=O)OCO3)C(=S)NCCOC	·	0.0	-0.9	-4.0	2	·	1.1	8
O=C(CC1CC2CCC1C2)Nc1nc(-c2ccccn2)cs1 (stereo not drawn)	·	0.5	0.0	1.0	62*	14	0.4	87*
CCN1CCN(C(=S)c2ccc(Cl)c(Cl)c2)CC1	-14%	-1.5	-5.3	·	6	-4	-0.4	-12
